# Assay outcomes as filed in PubChem.
# YopH PTP inh: inhibitors of Yersinia enterocolitica YopH tyrosine phosphatase; fluorescence Ex485/Em525; inhibition, %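 (about 10 µM by stock and volumes)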; 140,000 compounds, 0.16% hits;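 active = inhibition of 50% or more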;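 note: controls were vehicle for no effect and minimum signal wells for full effect; inactives centre near -20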
# Mtb bLac sens: beta-lactam sensitization of Mtb H37Rv. M. tuberculosis H37Rv growth with meropenem, percent inhibition; hits of this screen are not shown here. 330,000 compounds, 0.27% hits. inhibition, % at 25 µM;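 active = about 74% or more and at least 40 points above the plate without the antibiotic, then above 30% in a dose series; inconclusive = first-round hits that could not be retested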;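 note: growth measured after seven days incubation then overnight dye step; 0% = bacteria only wells and 100% = bacteria with antibiotic; twin plates without the antibiotic show which effects depend on it; some results filed as inactive read as strong as hits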
# RecA intein inh: Mtb RecA intein splicing inhibition; inhibition, %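 (about 9 µM by stock and volumes)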; cell-free RecA intein splicing, fluorescence; 290,000 compounds, 0.75% hits; P9WHJ3; in the data active = inhibition above about 30%; inconclusive = no clear call, values can overlap the other calls;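 note: 0% = vehicle wells and 100% = reference inhibitor control wells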
# Target sequence (P9WHJ3 whole entry, looked up): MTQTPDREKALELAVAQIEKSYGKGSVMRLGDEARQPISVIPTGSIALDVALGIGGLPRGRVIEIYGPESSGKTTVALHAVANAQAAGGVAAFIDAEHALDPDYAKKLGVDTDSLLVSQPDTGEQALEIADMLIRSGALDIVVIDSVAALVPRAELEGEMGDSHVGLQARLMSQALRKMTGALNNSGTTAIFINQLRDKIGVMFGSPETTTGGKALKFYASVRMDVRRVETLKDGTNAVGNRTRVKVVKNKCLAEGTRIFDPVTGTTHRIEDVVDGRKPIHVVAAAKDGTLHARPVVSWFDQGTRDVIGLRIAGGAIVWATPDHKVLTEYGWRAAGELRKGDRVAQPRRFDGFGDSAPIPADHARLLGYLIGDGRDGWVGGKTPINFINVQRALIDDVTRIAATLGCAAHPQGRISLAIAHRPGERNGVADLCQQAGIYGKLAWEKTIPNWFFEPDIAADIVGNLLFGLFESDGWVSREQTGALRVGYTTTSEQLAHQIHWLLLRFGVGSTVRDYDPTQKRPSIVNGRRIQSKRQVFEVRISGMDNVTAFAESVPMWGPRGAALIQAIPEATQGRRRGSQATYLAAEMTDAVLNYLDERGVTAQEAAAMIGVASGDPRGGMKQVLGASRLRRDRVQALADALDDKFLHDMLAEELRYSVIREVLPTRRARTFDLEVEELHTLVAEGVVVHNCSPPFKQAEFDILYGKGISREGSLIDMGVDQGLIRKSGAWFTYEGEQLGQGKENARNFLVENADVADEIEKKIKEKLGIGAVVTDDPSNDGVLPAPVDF
# Mtb H37Rv: M. tuberculosis H37Rv growth inhibitors, H37Rv strain (AID 1626); 220,000 compounds, 0.95% hits; M. tuberculosis H37Rv growth inhibition; higher % means a stronger effect; one-dose inhibition, % at 10 µM; IC50 in µM for titrated hits;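 active = confirmed in a dose series; inconclusive = inhibition above 80% but not taken into the dose series; inactive = below 80% or under 30% at every dose of the series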;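 note: bacteria incubated seven days before Alamar blue readout; 0% = bacteria only wells and 100% = bacteria with antibiotic wells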
# Arbovirus anti: arbovirus infection inhibition; arbovirus infection cell-based antiviral screen; inhibition, % at 10 µM; 200,000 compounds, 0.37% hits;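 active = inhibition from about 30%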;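 note: bluetongue infection of BSR cells; cell survival read as ATP light after 72 h; 0% = infected wells without compound and 100% = uninfected wells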
# Arbovirus anti repeat: recorded beside Arbovirus anti, whose call it bears; inhibition, %; measured here: 10K subset replicate screen; many hits read low in the repeat;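 first of two repeat runs on a subset; 0% = infected and 100% = uninfected wells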
# * marks the source's active call; other numbers are inactive results; ? = inconclusive; . = not tested or not shown. This is a subset; the hit share may differ from the screen's.
SMILES,YopH PTP inh,Mtb bLac sens,RecA intein inh,Mtb H37Rv,Arbovirus anti,others
Cc1csc(NC(=O)CSc2ccc([N+](=O)[O-])cn2)n1,.,68,0.1,.,.,
O=S(=O)(NCc1cccnc1)c1ccccc1,-17,-1,4.0,1%,-2,
S=C(NCc1cccnc1)Nc1cccc2ccccc12,-19,0,-1.0,-10%,0,
CCOc1ccc(Nc2nc(NCC(=O)O)nc(N)c2[N+](=O)[O-])cc1,.,-5,0.9,.,.,
CCOc1ccccc1NC(=O)COC(=O)C1CC(=O)N(c2c(C)cccc2C)C1 (stereo unspecified),.,4,1.9,.,.,
CCCCOn1c(C)c(C(C)=O)c2c3no[n+]([O-])c3ccc21,.,-2,0.4,-14%,-7,
OCC1(Cc2ccccc2)CCCN(Cc2ccc3c(c2)OCCO3)C1 (stereo unspecified),.,-5,1.0,2%,-8,
Cc1ccc(S(=O)(=O)C2(C(=O)NC3CCCC3)CC2)cc1,3,-7,-1.5,-4%,-2,
CCOc1cc(C(=O)Nc2cc3c(cc2N2CCOCC2)n(C)c(=O)n3C)cc(OCC)c1OCC,.,1,-1.7,.,.,
COc1ccc(Cl)cc1NC(=O)CN(C)C(=O)c1cc2ccccc2cc1OC,.,-4,19,.,.,
CCN=C1S/C(=C\c2cn(CC(=O)NCc3ccco3)c3ccccc23)C(=O)N1CC,.,-9,-17,.,.,
CC(=O)Nc1nnc(-c2ccc3c(c2)CCCC3)o1,-13,74,3.0,12µM*,-1,Arbovirus anti repeat=-7
CC(=O)NC(Cc1ccccc1)C(=O)N1CCN(C(=S)NCC(C)C)CC1 (stereo unspecified),.,1,5.8,-1%,0,
CCOc1ccc(-n2c(Cc3cc(=O)[nH]c(=O)[nH]3)nnc2SC(C)C(=O)OC)cc1 (stereo unspecified),-38,-2,-1.9,.,7,Arbovirus anti repeat=3
COCCNC(=O)c1ccc(CS(=O)(=O)c2ccccc2)o1,-26,10,-2.2,4%,8,

# Grouped by structure: those above containing nitrogen in an aromatic ring (9)
SMILES,YopH PTP inh,Mtb bLac sens,RecA intein inh,Mtb H37Rv,Arbovirus anti,others
Cc1csc(NC(=O)CSc2ccc([N+](=O)[O-])cn2)n1,.,68,0.1,.,.,
O=S(=O)(NCc1cccnc1)c1ccccc1,-17,-1,4.0,1%,-2,
S=C(NCc1cccnc1)Nc1cccc2ccccc12,-19,0,-1.0,-10%,0,
CCOc1ccc(Nc2nc(NCC(=O)O)nc(N)c2[N+](=O)[O-])cc1,.,-5,0.9,.,.,
CCCCOn1c(C)c(C(C)=O)c2c3no[n+]([O-])c3ccc21,.,-2,0.4,-14%,-7,
CCOc1cc(C(=O)Nc2cc3c(cc2N2CCOCC2)n(C)c(=O)n3C)cc(OCC)c1OCC,.,1,-1.7,.,.,
CCN=C1S/C(=C\c2cn(CC(=O)NCc3ccco3)c3ccccc23)C(=O)N1CC,.,-9,-17,.,.,
CC(=O)Nc1nnc(-c2ccc3c(c2)CCCC3)o1,-13,74,3.0,12µM*,-1,Arbovirus anti repeat=-7
CCOc1ccc(-n2c(Cc3cc(=O)[nH]c(=O)[nH]3)nnc2SC(C)C(=O)OC)cc1 (stereo unspecified),-38,-2,-1.9,.,7,Arbovirus anti repeat=3

# Remaining list, next part.
SMILES,YopH PTP inh,Mtb bLac sens,RecA intein inh,Mtb H37Rv,Arbovirus anti,others
O=C(NCc1cccnc1)Nc1cccc(F)c1,.,-5,-1.6,4%,-1,
COc1cccc(NC(=O)CN2C(=O)COc3ccc(C)cc32)c1,.,-7,0.1,.,.,
O=c1c2cnn(-c3ccc(F)cc3)c2ncn1Cc1ccc(F)cc1,-23,-3,0.8,-8%,-2,
Cc1nc([N+](=O)[O-])c(Br)n1CC(=O)c1ccc2ccccc2c1,-17,100,3.8,44%,-31,
O=C(CCn1c(=O)oc2ccccc21)n1c(=O)oc2ccccc21,-9,-2,0.1,-7%,3,
COc1ccccc1CCC(=O)OCC(=O)NC1CC1,.,-4,-1.9,.,.,
Cc1ccc(NC(=O)N2C3CCCC2CC(NC(=O)C(C)(C)C)C3)cc1 (stereo unspecified),.,-10,-2.6,.,.,
COc1ccc(C(N)CCc2ccco2)cc1 (stereo unspecified),-14,-5,-2.1,3%,7,
COc1nsnc1NS(=O)(=O)c1ccc(NC(=S)NC(=O)c2cccnc2)cc1,.,-4,-5.7,-5%,-1,
O=C(CN1CCN(c2ccc(F)cc2)CC1)NCC1CCCO1 (stereo unspecified),-22,-3,-1.9,-7%,14,
O=C1NC(c2ccccc2)CCO1 (stereo unspecified),.,-7,3.1,.,.,
Cc1c(C(=O)OCC(C)(C)CN(C)C)oc2ccccc12,-28,-5,-1.9,-1%,4,
CCOC(=O)C(=O)Nc1nnc(CCc2ccccc2)s1,-36,-1,1.8,-4%,5,
O=C(CSc1nnc(-c2ccco2)o1)Nc1cccc([N+](=O)[O-])c1,.,-6,-2.9,.,.,
CCC(=O)Nc1nc2ccccc2n1Cc1ccccc1,-21,99,-0.3,?,-12,

# Three successive compounds from above:
SMILES,YopH PTP inh,Mtb bLac sens,RecA intein inh,Mtb H37Rv,Arbovirus anti,others
COc1ccc(C(N)CCc2ccco2)cc1 (stereo unspecified),-14,-5,-2.1,3%,7,
COc1nsnc1NS(=O)(=O)c1ccc(NC(=S)NC(=O)c2cccnc2)cc1,.,-4,-5.7,-5%,-1,
O=C(CN1CCN(c2ccc(F)cc2)CC1)NCC1CCCO1 (stereo unspecified),-22,-3,-1.9,-7%,14,

# More structures:
SMILES,YopH PTP inh,Mtb bLac sens,RecA intein inh,Mtb H37Rv,Arbovirus anti,others
CN1CCN(c2ccc(Cl)cc2NC(=O)CN2C(=O)NC(C)(c3ccccc3)C2=O)CC1 (stereo unspecified),.,-5,1.7,.,.,
COc1ccc(Cl)cc1NS(=O)(=O)c1cccc(C(=O)NCC(c2ccco2)N(C)C)c1 (stereo unspecified),.,-26,-0.1,.,.,
CC(C)(C)OC(=O)NNC(=O)C12CC3CC(CC(C3)C1)C2,.,-19,0.2,-8%,20,
CCCCNC(=O)c1cc2n(n1)C(C(F)(F)F)CC(c1ccccc1)N2 (stereo unspecified),-21,100,-2.2,0.36µM*,11,
COC(=O)c1ccccc1NC(=O)Nc1ccc(Br)cn1,.,-7,-1.1,-1%,3,
Cc1cc(N2C(=O)C(O)=C(C(=O)c3cc4ccccc4o3)C2c2ccc(Br)cc2)no1 (stereo unspecified),.,20,-7.3,.,.,
CCOC(=O)C1=C(c2ccccc2)NC(=S)NC1C (stereo unspecified),-12,-6,2.9,.,3,
NC(=O)c1ccc(NC(=O)COC(=O)/C=C/c2ccc3c(c2)OCO3)cc1,.,2,-0.6,16%,.,
CCOc1ccccc1NC(=O)CN(C)S(=O)(=O)c1ccc2[nH]c(=O)oc2c1,.,9,-1.5,.,.,
Cc1cc(C)cc(C(=O)OCC(=O)N2CCCC2)c1,.,6,0.5,.,.,
COc1ccc(/C=c2\sc3nc(-c4ccccc4OC)nn3c2=O)c(OC)c1,-22,2,-2.7,-1%,18,
N#C/C(=C/c1ccc(N2CCCCC2)o1)c1cccc(F)c1,-2,13,4.7,4%,-4,
O=[N+]([O-])c1cc2c(cc1CN1CCN(c3ccccc3)CC1)OCO2,.,-1,-0.1,.,.,
Cc1ccc(Cl)cc1NC(=O)CSc1nnc(C)n1-c1ccccc1,-19,-2,0.7,-3%,6,
CCOC(=O)c1c(-c2ccccc2)csc1NC(=O)CSc1nnnn1C,-39,25,7.6,48%,-17,
COc1ccc(/C=C2\SC(=O)N(CCNC(=O)C3CSC4(C)CCC(=O)N34)C2=O)cc1 (stereo unspecified),.,-9,1.9,.,.,
CS(=O)Cc1cc(Sc2ccccc2)nc(-c2ccncc2)n1 (stereo unspecified),.,7,9.8,-2%,1,
Cc1c(Cl)cccc1NC(=S)N(Cc1cccs1)C1CCCC1,.,-1,7.3,6%,12,
CN(C)CCCN(C(=O)c1ccc(S(=O)(=O)N(C)C)cc1)c1nc2cc3c(cc2s1)OCO3,.,-4,.,-2%,-1,
CCCS(=O)(=O)N1CCCC(C(=O)NCCCN2CCCC2=O)C1 (stereo unspecified),-21,-7,-4.5,-4%,7,
Cc1ccc(OCCSc2nc3ccccc3n2CCC(=O)O)cc1,.,-7,-2.8,.,.,
O=C(CCCc1cccs1)N1CCN(S(=O)(=O)c2ccccc2Br)CC1,3,2,3.8,.,10,
Cc1ccc(NC2=NCC(=O)N2C2CCCC2)cc1,.,-1,-0.1,-2%,3,
Nc1ccc(NC(=O)c2cccs2)c(Cl)c1,-39,-7,0.7,-9%,-6,
COc1cccc(C2c3[nH]c4ccccc4c3CCN2C(=O)c2ccccc2F)c1OC (stereo unspecified),.,95,0.2,.,.,
Cc1c(NC(=O)COC(=O)CCC(=O)c2ccc(Cl)cc2)c(=O)n(-c2ccccc2)n1C,.,-7,-1.3,0%,7,
O=C(CCCOc1ccccc1)Nc1ncccn1,-14,-4,0.5,4%,5,
O=C(O)c1cccc([N+](=O)[O-])c1C(=O)Nc1cccc2ccccc12,.,2,0.3,.,.,
Cc1ccc(NC(=O)CCCC2CCCCC2)c(O)c1,.,-7,1.3,.,.,
COc1ccc(Br)cc1C(C[N+](=O)[O-])c1c(N)n(C)c(=O)n(C)c1=O (stereo unspecified),.,100,-0.5,8.1µM*,.,
O=C(CCS(=O)(=O)Cc1ccccc1)N1CCN(c2ccc([N+](=O)[O-])cc2)CC1,.,10,3.5,1%,12,
CCOC(=O)/C(N=Nc1c(Br)cc(Br)cc1Br)=C(\C)O,-20,-2,.,-12%,5,
CC1CCC2(CC1)NC(=O)N(CC(=O)N1CCN(S(=O)(=O)c3ccccc3)CC1)C2=O (stereo unspecified),.,-1,-5.3,0%,7,
O=C(O)C1C2CCC(C2)C1C(=O)NCc1ccccn1 (stereo unspecified),-27,-4,0.8,-3%,3,
COc1cccc(CC(=O)OCC(=O)N2CCN(c3ccc(F)cc3)CC2)c1,.,-16,0.3,.,.,
O=C(Nc1ccc(Br)cc1)N1CCc2ccccc2C1,.,8,2.4,.,.,
COc1ccccc1CNC(=O)c1nn(C)c2c1CS(=O)(=O)c1ccccc1-2,.,-3,-0.5,.,.,
O=c1[nH]cnc2scc(-c3ccsc3)c12,-43,-7,1.9,-2%,0,
Cc1occc1-c1nnc(SCC(=O)N(C)c2ccccc2)n1C,.,5,-4.4,.,.,
CC(C)CCOCc1nc2sc3c(c2c(=O)[nH]1)CCC(C)C3 (stereo unspecified),-9,-2,-4.2,5%,3,
CC1CCCC1/C(=N/O)c1ccccc1 (stereo unspecified),.,-4,-1.9,.,.,
O=C(/C=C/c1ccccc1)N1CCC(c2ccccc2)C1 (stereo unspecified),-16,4,3.2,11%,-7,
CCCCc1nc2ccccc2c(=O)n1-c1ccc(Cl)cc1[N+](=O)[O-],-34,-2,0.0,-4%,-1,
Cc1ccc(S(=O)(=O)N(CC(=O)NN=C2CCN(C)CC2)c2ccc(C(C)C)cc2)cc1,.,-8,-1.7,4%,-11,
Cc1ccc(S(=O)(=O)N(C)C)cc1NC(=O)COC(=O)/C=C/c1ccc2ccccc2n1,.,92,-2.4,.,.,
COc1ccc(-c2csc(CCn3nc(C)cc3C)n2)cc1OC,.,-1,0.0,2%,3,

# 2 compounds picked at random from the list so far:
SMILES,YopH PTP inh,Mtb bLac sens,RecA intein inh,Mtb H37Rv,Arbovirus anti,others
Cc1ccc(S(=O)(=O)N(CC(=O)NN=C2CCN(C)CC2)c2ccc(C(C)C)cc2)cc1,.,-8,-1.7,4%,-11,
CC1CCC2(CC1)NC(=O)N(CC(=O)N1CCN(S(=O)(=O)c3ccccc3)CC1)C2=O (stereo unspecified),.,-1,-5.3,0%,7,

# Some of these compounds in order of heavy-atom count, descending:
SMILES,YopH PTP inh,Mtb bLac sens,RecA intein inh,Mtb H37Rv,Arbovirus anti,others
O=C(CCS(=O)(=O)Cc1ccccc1)N1CCN(c2ccc([N+](=O)[O-])cc2)CC1,.,10,3.5,1%,12,
CCCCc1nc2ccccc2c(=O)n1-c1ccc(Cl)cc1[N+](=O)[O-],-34,-2,0.0,-4%,-1,
O=C(/C=C/c1ccccc1)N1CCC(c2ccccc2)C1 (stereo unspecified),-16,4,3.2,11%,-7,
